High-throughput results as filed in PubChem.
miR-21 reporter: miR-21 reporter, rising signal. HeLa miR-21 FLuc reporter, luciferase, 48 h. Potency, µM (titrated, usually from 38.3 µM), inactives show at the top dose reporter change, positive = more light. 340,000 tested, under 10 active; active = well fitted rising curve with a large enough effect; inconclusive = small, poorly fitted or top-dose-only effect; inactive = no such curve, though single readings can be large or run the other way;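 further: % of control where 0% means no effect; miR-21 action dims this reporter so a rising signal means less miR-21 action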
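Luminescence from a firefly luciferase reporter carrying a miR-21 binding site downstream, stably expressed under a CMV promoter in HeLa cells that make miR-21 endogenously, reports miRNA modulation after 48 h compound exposure up to approximately 40uM final.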
Rango complex inh: prevents formation of the Rango-importin beta complex; actives 0.031% (n = 340,000); Potency, µM (titrated, usually from 92.2 µM), for inactives: at the top dose inhibition of complex formation; Rango CFP/YFP FRET sensor + importin beta, 45 min; AID 540263; active = rising FRET ratio curve, often small or poorly fitted; inconclusive = mostly compound fluorescence or quenching in the first reads; inactive = flat curves in all reads;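 further: potency means the concentration at half of the fitted maximal effect; 0% = DMSO wells and 100% = buffer wells lacking importin beta; nearly all actives have a fitted effect of over 15% in size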
Target sequence (Q14974 whole entry, looked up): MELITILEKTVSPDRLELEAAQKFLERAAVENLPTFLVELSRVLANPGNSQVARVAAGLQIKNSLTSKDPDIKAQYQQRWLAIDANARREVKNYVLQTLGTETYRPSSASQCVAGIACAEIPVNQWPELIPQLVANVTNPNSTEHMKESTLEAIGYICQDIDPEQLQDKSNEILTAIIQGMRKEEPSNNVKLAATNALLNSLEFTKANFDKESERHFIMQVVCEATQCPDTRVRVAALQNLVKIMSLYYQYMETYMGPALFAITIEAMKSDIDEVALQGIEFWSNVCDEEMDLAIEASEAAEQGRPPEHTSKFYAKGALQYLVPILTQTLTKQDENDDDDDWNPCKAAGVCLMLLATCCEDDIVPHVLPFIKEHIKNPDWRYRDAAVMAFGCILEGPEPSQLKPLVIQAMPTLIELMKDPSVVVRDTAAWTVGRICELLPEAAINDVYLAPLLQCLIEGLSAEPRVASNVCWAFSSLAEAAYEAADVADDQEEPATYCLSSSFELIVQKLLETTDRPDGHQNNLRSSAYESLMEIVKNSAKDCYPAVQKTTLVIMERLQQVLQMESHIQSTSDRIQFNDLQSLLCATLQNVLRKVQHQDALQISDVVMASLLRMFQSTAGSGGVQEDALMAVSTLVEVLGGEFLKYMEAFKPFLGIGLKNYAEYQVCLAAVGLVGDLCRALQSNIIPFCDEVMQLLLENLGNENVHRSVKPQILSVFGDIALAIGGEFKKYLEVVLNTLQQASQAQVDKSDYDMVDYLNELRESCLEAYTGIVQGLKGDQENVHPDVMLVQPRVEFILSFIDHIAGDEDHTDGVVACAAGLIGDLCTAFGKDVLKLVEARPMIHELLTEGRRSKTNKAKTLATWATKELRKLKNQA
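FRET biosensor Rango (snurportin 1 IBB between N-terminal EYFP and C-terminal Cerulean), 50 nM in PBS/1 mM DTT/0.02% Tween-20/0.1% BSA, preincubated 5 min RT with compound; 0.125 microM importin beta added, 45 min RT, CFP/YFP FRET ratio read.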
GLA inh pH 4.5: alpha-galactosidase A (human) inhibition, pH 4.5 | P06280 | purified enzyme, 4-MU-alpha-Gal fluorescence, pH 4.5 | activity change, negative = inhibition, % at 105 µM | 230,000 tested, under 10 active; inconclusive = small, poorly fitted or top-dose-only inhibition, or a rising curve; inactive = flat fitted curve, though single readings scatter; no compound was filed as active;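 further: 0% = full activity with enzyme and -100% = basal without enzyme; dose as in the result columns while the protocol names 77 µM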
Rango release inh: inhibitors of RanGTP-induced Rango-importin beta complex dissociation | O95149+P62826 | Biochemical FRET Rango-importin beta, RanGTP-induced dissociation | Potency, µM (highest dose often 46.1 µM), inactives show at the top dose activity change, negative = inhibition | actives 0.071% (n = 340,000) | AID 540253; active means falling FRET ratio curve, often poorly fitted, with flat reads before Ran was added; inconclusive means other falling curves, or compound fluorescence or quenching; inactive means flat or rising ratio curve;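 further: potency means the concentration at half of the fitted maximal effect; % of control where 0% means no effect; nearly all actives have a fitted effect of over 45% in size; -100% = wells without RanGTP and RCC1; the record marks most hits as doubtful in a second field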
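Two FRET readings bracket the reaction: one 5 min after compound meets Rango–importin beta, another 45 min after RanGTP-RCC1 (0.6 uM Ran, 0.2 uM RCC1, 2 mM GTP) is added. Only the second defines inhibition.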
* marks the source's active call; other numbers are inactive results; ? = inconclusive; nt = not tested or not shown; & = joins results of further samples; [ ] = remark or other dose. Some of the compounds tested; the hit share may differ from the screen's.

Below each compound – miR-21 reporter	Rango complex inh	GLA inh pH 4.5	Rango release inh
- CCC(C)[C@H](NC(=O)N1CC(=O)Nc2ccccc21)C(=O)N1CCC[C@H]1C(=O)O (some centres not stated)
  1%	-2.1%	nt	-6%
- O=C(O)c1ccc2c(c1)-c1cc(C(=O)O)ccc1S2(=O)=O
  -2%	-4.2%	nt	-3%
- Cc1ccc2occ(-c3nn[nH]n3)c(=O)c2c1
  1%	-1.4%	4	25%
- COc1ccc(C(=O)C2CCCN(S(=O)(=O)C(C)C)C2)c(C)c1 (configuration not stated)
  -2%	-1.0%	-6	0%
- N#Cc1nc(Cc2cccc3ccccc23)oc1N1CCCCC1
  -25%	0.3%	17	11%
- O=C(O)Cc1nc2nc3c(c(=O)n2[nH]1)CCCC3
  -1%	-1.4%	0	4%
- COc1cc2c(cc1OC)CN(C(=O)Nc1ccccc1Cl)CC2
  -6%	-0.1%	nt	0%
- Cc1n[nH]c(C)c1S(=O)(=O)N1CCC(C(=O)N2CCn3c2nc2ccccc23)CC1
  -1%	-1.2%	0	0%
- O=C(/C(=N\Nc1ccc(Br)cc1)Sc1nnnn1-c1ccccc1)c1ccccc1
  2%	0.0%	-1	-9%
- CN1CCN(c2ccccc2NC(=S)NC(=O)c2cc3ccccc3o2)CC1
  1%	2.6%	nt	-10%
- CC(=O)Nc1ccc(C(=O)COC(=O)c2ccco2)c(F)c1
  nt	-1.9%	nt	-6%
- O=C(O)/C=C/C(=O)NCC1CCC(CNC(=O)/C=C/C(=O)O)CC1 (configuration not stated)
  -1%	0.8%	3	13%
- Cc1ccc(S(=O)(=O)Nc2ccc(NC(=O)c3cccs3)cc2)cc1
  4%	0.8%	-11	1%
- S=c1[nH]nc(-c2cccnc2)o1
  -6%	3.7%	-2	0%
- COCCNC(=O)C1CCC(Cn2c(=S)[nH]c3ccccc3c2=O)CC1 (configuration not stated)
  -9%	-3.7%	-11	27%
- OC(CNCCC1C=Nc2ccccc21)Cn1c2ccc(Cl)cc2c2cc(Cl)ccc21 (configuration not stated)
  ?	-0.4%	7	2%
- O=C(OCC(=O)N1CCN(c2ccccc2)CC1)c1ccccn1
  -5%	2.0%	3	0%
- CC(=O)c1cccc(NC(=O)N2CCCC2C(=O)Nc2c(C)cccc2C)c1 (configuration not stated)
  3%	3.7%	5	-2%
- O=C(c1ccccc1)N1CCN(Cc2c[nH]c3ccccc23)CC1
  -3%	-0.1%	-2	13%
- Cc1ccc(C)c(C(=O)CCC(=O)N2CCN(c3ncccn3)CC2)c1
  -36%	-4.4%	nt	-19%
- CNC(=S)N(CCc1cccc(C)c1)Cc1cc2cc(OC)c(OC)cc2[nH]c1=O
  -18%	4.3%	-12	0%
- COc1ccccc1NC(=O)C(C)OC(=O)C1CCC(C(C)(C)C)CC1 (configuration not stated)
  nt	3.2%	nt	-18%
- C=CCn1c(CCCNC(=O)C(C)(C)C)nc2ccccc21
  0%	1.2%	1	20%
- CCC(=O)N/N=C(\C)CC(=O)Nc1ccc(F)cc1
  3%	-0.4%	-6[21.1 µM]	0%
- Cn1cccc1-c1cc(C(=O)N/N=C/c2ccc([N+](=O)[O-])cc2)[nH]n1
  2%	18%	nt	2%
- Cc1ncc([N+](=O)[O-])n1Cc1ccc(Cl)cc1
  -8%	-1.5%	3	0%
- CC(C)N1C(=O)N(c2cccc(Cl)c2)C(C)(O)CC1(C)C (configuration not stated)
  -1%	-6.9%	nt	1%
- Cc1oc(C(=O)Nc2ccc(C(=O)O)cc2)cc1COc1ccccc1
  -16%	-0.2%	3	4%
- N#Cc1ccc(Oc2ccc(S(=O)(=O)N3CCCCC3)cn2)cc1
  nt	-4.2%	nt	13%
- CN1CCN(C(=O)CCN2C(=O)/C(=C/c3ccccc3Cl)SC2=S)CC1
  18%	1.8%	-1	0%
- COc1ccc(NC(=O)CCCC(=O)O)cc1Cl
  0%	-3.3%	2	0%
- O=[N+]([O-])c1nn(-c2ccccc2)[n+]([O-])c1N1CCN(c2ccccc2)CC1
  0%	-0.2%	2	-1%
- Cc1ccccc1NS(=O)(=O)c1ccc(OCC(=O)NCC2CCCO2)cc1 (configuration not stated)
  3%	3.2%	nt	0%
- Cc1cc(C)nc(Nc2ncc(O)n2-c2ccc(C)c(Cl)c2)n1
  -8%	-2.9%	-9	21%
- Cc1cccc(-n2c(C)nc3cc(C(=O)NCc4ccc5c(c4)OCO5)ccc32)c1
  -10%	?	?	6%
- COc1ccc(CCN2C(=O)C3C4CC(C5C(C(=O)NN)=NOC45)C3C2=O)cc1OC (configuration not stated)
  0%	1.1%	-13	1%
- CCOc1ccc(NC(=O)CSc2nnc(N)s2)c([N+](=O)[O-])c1
  -12%	0.2%	-7	3%
- O=C(O)Cn1cnc2scc(-c3ccccc3)c2c1=O
  -2%	-3.1%	nt	5%
- Cc1occc1C(=O)Nc1ccc2c(c1)OCO2
  -36%	0.9%	-3	-3%
- Cc1ccnc(NS(=O)(=O)c2ccc(Cl)nc2)c1
  -2%	-2.7%	3	0%
- O=C(CN1CCN(c2ccccc2O)CC1)NC(c1ccccc1)c1ccccc1
  -9%	3.5%	-11	22%
- NC(=O)c1ccsc1NC(=O)COC(=O)Cc1cccc2ccccc12
  14%	5.4%	-12	2%
- Cc1ccc(C)c(OCCC(=O)OCC(=O)NC(=O)NCc2ccccc2)c1
  nt	-0.1%	nt	-1%
- CCOC(=O)C1=C(O)C(=O)N(c2ccccc2)C1c1cccc([N+](=O)[O-])c1 (configuration not stated)
  -17%	-0.1%	0	2%
- O=C(C[C@@H]1C/C=C\C[C@H](NC(=O)OCC2c3ccccc3-c3ccccc32)C(=O)O[C@H](c2ccccc2)CNC1=O)NCCO
  nt	-4.2%	nt	0%
- Cc1cccc(OCC(=O)NNC(=O)C2CCCCC2C(=O)O)c1 (configuration not stated)
  -6%	1.2%	9	-2%
- COc1cc(OC)c(Cl)cc1N
  0%	2.5%	5	-7%
- CCOC(=O)c1c(C)n(C)c2ccc(OCC(O)CN3CCC(C)CC3)cc12 (configuration not stated)
  -10%	0.3%	-10	12%
- Cc1ccc(CNC(=O)c2cn(C3CCCC3)c(=O)c3c2c2ccccc2n3C)o1
  -3%	nt	11	nt
- CCOC(=O)c1nn(C23CC4CC(CC(C4)C2)C3)c2c1C(=O)N(c1ccc(C)cc1)C2=O
  -5%	-1.1%	0	-8%
- COCC(C)N1CCC(n2nccc2NC(=O)CCOc2ccccc2)CC1 (configuration not stated)
  -3%	?	nt	-14%
- Cc1ccc(Nc2c([N+](=O)[O-])c(=O)n(C)c3ccccc23)cc1C
  4%	-4.3%	-8	6%
- C[n+]1ccccc1/C=C/c1ccc(F)c(F)c1
  1%	-0.8%	nt	4%
- Fc1cccc(NC(=S)N2CCc3ccccc32)c1
  -11%	-3.2%	nt	-3%
- CCOc1ccc(CCNC(=O)c2cc3sc(Cl)cc3n2C)cc1OCC
  -5%	-1.9%	2	18%
- Cc1ccc(C)c(NS(=O)(=O)c2cc(Br)cnc2N)c1
  -2%	-2.4%	-6	5%
- O=C(Nc1ccccc1)N1CCSCC1
  1%	0.3%	4	12%
- Cc1ccc(S(=O)(=O)N2CCN(c3cccc(C)c3)CC2)cc1
  -3%	2.8%	nt	0%
- O=C(NNC(=O)c1c(F)cccc1F)c1ccccc1-n1cccc1
  -4%	0.5%	1	-8%
- Cc1ccc(Sc2nc(C)cc(C)c2S(C)(=O)=O)cc1
  -17%	2.6%	-27	0%

The list goes on.
Below each compound – miR-21 reporter	Rango complex inh	GLA inh pH 4.5	Rango release inh
- Cc1nc(CSc2nsc(/C=C/N(C)C)c2C#N)cs1
  -9%	?	2	-19%
- CC12CCC(=O)N1C(C(=O)OCC(=O)Nc1ccc(Cl)c(Cl)c1)CS2 (configuration not stated)
  -4%	0.0%	5	-5%
- CCC1([N+](=O)[O-])COC(c2ccc(C(C)C)cc2)OC1 (configuration not stated)
  nt	-0.7%	nt	4%
- Cc1ccnc(SCc2cc(=O)c(OC(=O)c3cc([N+](=O)[O-])ccc3Cl)co2)n1
  -21%	-5.5%	2	-6%
- Cc1cc(C)cc(N2C(=O)CC(Sc3ccccc3C(=O)O)C2=O)c1 (configuration not stated)
  -9%	-0.8%	0	0%
- Cc1ccc2nc(NC(=O)c3ccc(S(=O)(=O)N4CCCc5ccccc54)cc3)sc2c1
  0%&-1%	1.9%	-9	-4%
- O=C(NC1CC1)c1ccc(NC(=O)C2CCC2)cc1
  nt	1.6%	nt	-1%
- O=C(CSc1nccc(=O)[nH]1)Nc1ccc(S(=O)(=O)N2CCOCC2)cc1
  2%	1.8%	-16	1%
- O=C(NCc1ccccc1OC(F)(F)F)C1CCC(=O)N(Cc2cccc(F)c2)C1 (configuration not stated)
  0%	-2.6%	nt	-5%
- OCCC1CN(Cc2ccc3nsnc3c2)CCN1C1CCCCC1 (configuration not stated)
  -1%	-0.8%	-12	-7%
- CC(Sc1nnc(C2CC2)n1C1CC1)C(=O)N(C)C1(C#N)CCCCC1 (configuration not stated)
  nt	2.6%	nt	-7%
- CC(NC(=O)C1(C)CC1(Br)Br)C(C)(C)C (configuration not stated)
  0%	-1.0%	-4	8%
- Cc1cccc(NC(=O)[C@@H](NC(=O)[C@@H]2Cc3ccccc3CN2)C(C)C)c1
  -9%	0.2%	nt	-4%
- CC1CN/C(=C\C(=O)c2ccc(Cl)cc2)C(=O)N1 (configuration not stated)
  1%	-0.1%	-10	5%
- CC(=O)Nc1ccc(NC(=O)/C(Cl)=C/c2ccccc2)cc1
  -39%	-1.5%	-4	-10%
- CC(=O)c1cccc(NC(=O)C2CCN(S(=O)(=O)c3cccs3)CC2)c1
  -6%	0.0%	8	6%
- O=C(c1ccc(N2CCNCC2)cc1)c1cccnc1
  0%	2.9%	-2	50%
- CCCCN1C(=O)/C(=C(/C#N)C(N)=O)c2ccccc21
  0%	-2.5%	-3	3%
- O=C(CSc1nc2c(c(=O)[nH]1)CCC2)Nc1cccc(F)c1
  -6%	4.6%	nt	18%
- O=C(CC(C(=O)c1ccccc1)c1ccccc1)c1ccccc1 (configuration not stated)
  nt	2.5%	nt	4%
- COc1ccc(C(=O)NC2CCCCCC2)cc1S(=O)(=O)N1CCOCC1
  -10%	-1.0%	nt	3%
- CO/N=C/c1ccc(N2CCN(C(=O)c3ccc(C)cc3)CC2)c([N+](=O)[O-])c1
  6%	-0.2%	-23	1%
- S=C(N/N=C/c1ccccc1)N1CCOCC1
  -46%	-4.1%	6	2%
- O=C(CC(c1ccccc1)c1ccccc1O)NCCN1CCOCC1 (configuration not stated)
  -2%	-1.6%	2	-4%
- COc1ccc(OC)c(NC(=O)CN2C(=O)CSc3ccc(S(=O)(=O)N4CCCC4)cc32)c1
  -5%	-1.6%	nt	4%
- CNC(=O)CSc1cnc2ccccc2n1
  1%	-1.3%	-2	12%
- CCC(C)(C)NC(=O)CCCSc1nc2ccccc2[nH]1
  -23%	-2.3%	2	10%
- Cc1ccc(C(=O)C[n+]2cccc(C(N)=O)c2)cc1
  -3%	0.2%	3	11%
- Cc1ccc(CN2CCN(C/C=C/c3ccc(F)cc3)CC2CCO)o1 (configuration not stated)
  -1%	0.6%	3	19%
- CCOC(=O)c1ccc(S(=O)(=O)NCC(C)(C)N2CCOCC2)cc1
  -1%	0.6%	4	26%
- CCOc1ccc(C(C(=O)NCC2CCCO2)N(Cc2cccs2)C(=O)c2snc(C(N)=O)c2N)cc1 (configuration not stated)
  12%	-1.3%	nt	-1%
- CC(=O)NCN1CCN(CNC(C)=O)CC1
  1%	5.7%	-20	15%
- CCOC(=O)[C@@H]1[C@H]2COc3cc(OC)ccc3[C@H]2N2C(=O)N(c3cccc(Cl)c3)C(=O)[C@@]12C
  -1%	3.7%	nt	23%
- Cc1nc(C)c(C(=O)Nc2cccc(C)c2C)s1
  -24%	4.4%	nt	-20%
- O=S(=O)(c1ccccc1)c1nc(-c2ccc(F)cc2)oc1NCC1CCCO1 (configuration not stated)
  nt	-2.5%	nt	0%
- CN(C1CCCC1)C1CCN(C(=O)CNC(=O)/C=C/c2ccccc2)CC1
  -11%	0.9%	-3	11%
- Cc1oc2c(c(=O)c1C)C(=O)CC(c1ccccc1)C2 (configuration not stated)
  5%	-5.2%	1	-11%
